Bioassay records from PubChem.
EPAC2 ant val – human EPAC2 antagonism, validation | Q8WZA2 | EPAC2 Rap1B BODIPY-GDP exchange, fluorescence | Potency, µM (series often up to 112 µM), without a hit: at the highest dose activity, negative = inhibition, usual class: inhibitors | 1.7% of 16,000 active; active means well fitted inhibition curve with a large enough effect; inconclusive means small, poorly fitted or top-dose-only effect; inactive means no such curve, though single readings can be large or run the other way;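 further: 100% = activation by cAMP agonist control; nearly all actives have a fitted effect of over 40% in size; the record reuses the description of the EPAC1 agonist screen; inactives centre near -10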
Target sequence (Q8WZA2 whole entry, looked up): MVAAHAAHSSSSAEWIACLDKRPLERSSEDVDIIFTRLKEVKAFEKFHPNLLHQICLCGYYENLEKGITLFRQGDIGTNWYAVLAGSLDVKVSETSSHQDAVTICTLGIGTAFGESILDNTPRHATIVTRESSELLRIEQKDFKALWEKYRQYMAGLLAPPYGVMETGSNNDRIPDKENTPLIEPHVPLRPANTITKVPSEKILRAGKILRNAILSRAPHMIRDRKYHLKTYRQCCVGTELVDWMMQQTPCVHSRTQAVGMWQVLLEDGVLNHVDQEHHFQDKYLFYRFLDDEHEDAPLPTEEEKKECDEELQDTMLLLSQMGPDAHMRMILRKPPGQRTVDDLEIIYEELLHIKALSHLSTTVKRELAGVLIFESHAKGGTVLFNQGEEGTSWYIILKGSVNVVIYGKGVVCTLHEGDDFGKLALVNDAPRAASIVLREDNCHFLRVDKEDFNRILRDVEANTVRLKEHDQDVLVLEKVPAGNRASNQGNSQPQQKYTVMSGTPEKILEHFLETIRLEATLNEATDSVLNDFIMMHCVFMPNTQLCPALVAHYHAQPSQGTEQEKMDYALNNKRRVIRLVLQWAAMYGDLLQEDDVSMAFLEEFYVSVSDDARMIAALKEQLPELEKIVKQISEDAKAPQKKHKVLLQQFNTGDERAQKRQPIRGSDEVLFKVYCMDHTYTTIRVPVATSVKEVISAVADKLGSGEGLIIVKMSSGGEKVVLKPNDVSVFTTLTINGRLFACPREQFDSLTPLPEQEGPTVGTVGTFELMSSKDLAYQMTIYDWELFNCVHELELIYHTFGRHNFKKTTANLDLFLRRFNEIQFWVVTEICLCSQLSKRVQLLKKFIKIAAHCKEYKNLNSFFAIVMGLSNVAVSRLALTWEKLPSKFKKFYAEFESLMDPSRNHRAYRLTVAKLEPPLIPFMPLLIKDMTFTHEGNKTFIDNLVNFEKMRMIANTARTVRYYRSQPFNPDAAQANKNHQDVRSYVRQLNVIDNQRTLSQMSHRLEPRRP
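Normalized against a 6.5 mM cAMP agonist control, compounds were tested on 100 nM EPAC2 exchanging Rap1B-bound BODIPY-GDP (250 nM) for 50 uM GDP. Fluorescence drop (ex 480, em 540 nm) was tracked at room temperature over 30 min at 5-min intervals.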
* marks the source's active call; other numbers are inactive results; u = inconclusive; & = joins results of further samples; [ ] = dose if it differs, or a comment. Potency means the concentration at half of the fitted maximal effect. The list is partial. The share of hits here may be higher or lower than overall.

SMILES | EPAC2 ant val
C=C1C(=O)C23C(O)C1CCC2[C@]12COC3(O)C(O)C1C(C)(C)CC[C@H]2O (stereo not given in full) | -14%
OC[C@H]1O[C@@H](n2cnc3c(NCc4ccco4)ncnc32)[C@H](O)[C@@H]1O | -10%&-16%
CC(C)SC(=N)N | -10%
CC[C@@H](C(=O)O)[C@@H]1O[C@@H]([C@@H](C)[C@H](O)[C@H](C)C(=O)[C@H](CC)[C@H]2O[C@]3(C=C[C@@H](O)[C@]4(CC[C@@](C)([C@H]5CC[C@](O)(CC)[C@H](C)O5)O4)O3)[C@H](C)C[C@@H]2C)[C@@H](C)C[C@@H]1C | 16%
COc1cc(=O)n2c(c1C(=O)N(C)Cc1nonc1C)CCN(CC1CC=CCC1)CC2 (stereo not given) | u
CCCN1CCC(=O)N(CCOc2ccccc2)CC1 | -4%
COc1ccc(Oc2ncc3ncc(=O)n(Cc4cccc(OC)c4)c3n2)cc1 | u
N#Cc1cccc(NC(=O)N2CCC3(CC2)CCN(C(=O)c2cnccn2)CC3)c1 | -1%
Nc1nc(N)c(-c2ccccc2)s1 | -1%
O=C(c1csnn1)N1CCC2(CCCN(Cc3cc(C(F)(F)F)cc(C(F)(F)F)c3)C2)CC1 | u
COc1cc(CN2CCC3(CCC(CNC(=O)c4ccco4)O3)CC2)ccc1O (stereo not given) | 10%
CC(=O)Oc1cc2c(c(C)c1OC(C)=O)CC=C1[C@]3(C)CC[C@]4(C)CC[C@@](C)(C(=O)O)CC4[C@]3(C)CC[C@]12C (stereo not given in full) | u
C=C[C@@H]1c2ccccc2N(S(=O)(=O)c2ccc(C)cc2)[C@H](c2ccccc2C(F)(F)F)C1(C#N)C#N | u
CC(NC(=O)c1cc(F)ccc1F)c1nnc2n1CCN(Cc1cccs1)CC2 (stereo not given) | -20%
CC(=O)C[C@H]1c2cc(C(F)(F)F)ccc2S(=O)(=O)N1C1CCCCC1 | -26%
O=C(c1cccc(F)c1)N1CCC2(CC1)CN(Cc1ccccc1)C2 | -16%
COCC(=O)N1CCC[C@@]2(CCN(c3ccncc3)C2)C1 | -16%
FC(F)(F)C(Cl)Br (stereo not given) | -19%
Nc1ccn([C@H]2CC[C@@H](CO)O2)c(=O)n1 | -2%&-6%&10%
NC(N)=NN=C(/C=C/c1ccc([N+](=O)[O-])o1)/C=C/c1ccc([N+](=O)[O-])o1 | u
C[C@@H]1O[C@@H](OC[C@H]2O[C@@H](Oc3c(-c4ccc(OCCO)c(OCCO)c4)oc4cc(OCCO)cc(O)c4c3=O)[C@H](O)[C@@H](O)[C@@H]2O)[C@H](O)[C@H](O)[C@H]1O | -6%
COc1cc(-c2noc(C)c2/C=C/c2ccc(OC(C)=O)cc2)cc(OC)c1OC | u
O=C(c1csnn1)N1CCC2(CCCN(c3ccc(-c4ccccc4)cc3)C2)CC1 | -16%
Nc1nc2c([nH]c(=O)n2C2OC(CO)C(O)C2O)c(=O)[nH]1 (stereo not given) | -18%
CCc1cc(C(=O)N2CCOc3ccc(CN4CCN(Cc5ccccn5)CC4)cc3C2)no1 | -2%
Continuation:
SMILES | EPAC2 ant val
CC(C)(C)[C@H]1CCC(=O)N([C@H](CN=[N+]=[N-])Cc2ccccc2)CC1 | 56µM*
OCCN1CCN(Cc2ccc3c(c2)CN(Cc2cc4ccccc4o2)CCO3)CC1 | 7%
COc1ccc(CNC(=O)[C@@H]2CC=C[C@@H]3CCN(C4CC4)C(=O)[C@@H]32)cc1 | -9%
COc1cccc(Nc2ncc3nc(CCc4ccccc4)c(=O)n(C)c3n2)c1 | -2%
Cc1ncc2c(c1CNC(=O)/C=C/c1cccs1)CCN(C(=O)c1cc(C(C)C)on1)C2 | u
NCCCC(N)(C(=O)O)C(F)F (stereo not given) | 10%&-9%
CC(=O)OCCC(C)CCC=C(C)C (stereo not given) | -3%
COc1cccc(NC(=O)/C=C\c2ccc(Cl)cc2)c1 | u
c1nc(NC2CC2)c2cc(-c3ccoc3)ccc2n1 | -15%
COc1ccc(-n2c(=O)c(C)nc3cnc(N(C)C)nc32)cc1 | -17%
CC1=C(C(N)=O)N2C(=O)[C@@H](NC(=O)Cc3ccccc3)C2SC1 (stereo not given in full) | -24%
CCCc1nc(C(C)(C)O)c(C(=O)OCc2oc(=O)oc2C)n1Cc1ccc(-c2ccccc2-c2nn[nH]n2)cc1 | -20%
CCN1CCCC1CNC(=O)c1cnn(-c2nccc(-c3cc4ccccc4o3)n2)c1C (stereo not given) | -7%
CSc1ccccc1N1CCN(CCCCCC(=O)NC2CCCc3ccccc32)CC1 (stereo not given) | -15%
O=S1(=O)CCOC[C@H](c2ccccc2)N1Cc1ccc(F)cc1 | u
Nc1nc(=O)n(C2OC(CO)C(O)C2O)cc1Cl (stereo not given) | -6%
Oc1ccccc1O | 17%
COc1ccc(Oc2ncc3nc(-c4ccc(F)cc4)c(=O)n(CCC#N)c3n2)cc1 | -28%
CNCC(O)c1ccc(OC(=O)C(C)(C)C)c(OC(=O)C(C)(C)C)c1 (stereo not given) | 18%[56.6 µM]
CN(C)CCN(Cc1cccs1)c1ccccn1 | -13%&-11%
Nc1ccc(S(=O)(=O)Nc2cnc3ccccc3n2)cc1 | -21%&-8%
NC1(C(=O)O)C[C@@H](C(=O)O)[C@H](C(=O)O)C1 | 0%&-6%&-24%
O=C1CCN(Cc2cccnc2)CCN1[C@H](CO)Cc1ccccc1 | -44%
C[C@]12CCC3c4ccc(O)cc4CCC3C1CCC2=O (stereo not given in full) | -7%
NC(=O)OCC(COC(N)=O)c1ccccc1 | 6%&-15%&-8%

The last 3 compounds of the section above are carried over, then new ones follow:
SMILES | EPAC2 ant val
O=C1CCN(Cc2cccnc2)CCN1[C@H](CO)Cc1ccccc1 | -44%
C[C@]12CCC3c4ccc(O)cc4CCC3C1CCC2=O (stereo not given in full) | -7%
NC(=O)OCC(COC(N)=O)c1ccccc1 | 6%&-15%&-8%
O=S1(=O)CCO[C@H]2CCCC[C@@H]2N1Cc1cccc(F)c1 | 3%
CC[N+]1(CC(=O)c2ccc(Br)cc2)CCCCC1 | -22%
CN1CC(=O)NC1=N | -17%
CCC(C)C(=O)O[C@H]1C[C@@H](C)C=C2C=C[C@H](C)[C@H](CC[C@@H]3C[C@@H](O)CC(=O)O3)C21 (stereo not given in full) | u
C=CCN1c2ccccc2C(=O)CS1(=O)=O | -6%
CC(=O)Oc1cc(C(C)C)c(OCCN(C)C)cc1C | -21%
Cn1cc(-c2nc3cncnc3n(-c3ccccc3)c2=O)c2ccccc21 | u
CS(=O)(=O)Nc1cccc(-c2ccc3ncnc(NCc4cccnc4)c3c2)c1 | -16%
CCCc1nc(C)c2c(=O)[nH]c(-c3cc(S(=O)(=O)N4CCN(CC)CC4)ccc3OCC)nn12 | 5%
C=CCc1cccc(C=NNC(=O)CN2CCN(Cc3ccccc3)CC2)c1O | -7%
C=C1CC/C=C(\C)CC[C@@H]2[C@@H]1CC2(C)C | -8%
COc1cccc(Nc2ncc3nc(-c4ccc(Cl)cc4)c(=O)n(CCC#N)c3n2)c1 | u
c1ccc2c(N3CCNCC3)nc(-c3ccc4c(c3)OCO4)nc2c1 | -8%
O=c1c(-c2cc(F)cc(F)c2)nc2cncnc2n1-c1ccccc1 | -17%
Cc1ccccc1-c1nc(NCCN2CCOCC2)c2ccccc2n1 | -10%
C[C@]12CC[C@@H]3c4ccc(O)cc4CC[C@H]3[C@@H]1CCC2=O | -11%&-4%&6%
Cc1cccc2cc(CN(C(=O)c3ccc(C(F)(F)F)cc3)C3CC3)c(N3CCC(O)CC3)nc12 | u
COc1cc(=O)n2c(c1C(=O)NCc1ccco1)CCN(C(=O)c1ccccc1-c1ncc[nH]1)CC2 | 5%
CCCCCCCCN1[C@@H](CC(C)=O)c2ccc(/C=C/C(C)=O)cc2S1(=O)=O | -25%
Cc1ccc(SC[C@H](Cc2ccccc2)N2CC[C@@H](C)CCC2=O)cc1 | u
C=C(NC(=O)C(=C)NC(=O)c1csc(C2=NC3c4csc(n4)C4NC(=O)c5csc(n5)C(C(C)(O)C(C)O)NC(=O)C5CSC(=N5)C(=CC)NC(=O)C(C(C)O)NC(=O)c5csc(n5)C3(CC2)NC(=O)C(C)NC(=O)C(=C)NC(=O)C(C)NC(=O)C(C(C)CC)NC2C=Cc3c(C(C)O)cc(nc3C2O)C(=O)OC4C)n1)C(N)=O (stereo not given) | -15%
Cc1occc1C(=O)Nc1cccc(-c2nc(CNC(=O)c3ccc4ccccc4n3)c(C)o2)c1 | u
COc1cc(-c2noc(C)c2C#Cc2ccsc2)cc(OC)c1OC | u
N=C(N)c1ccc(OCCCOc2ccc(C(=N)N)cc2Br)c(Br)c1 | 21%
N[C@@H](Cc1cc(I)c(Oc2cc(I)c(O)c(I)c2)c(I)c1)C(=O)O | -14%[29.6 µM]

Fetched by structure from the list above, 3 records:
SMILES | EPAC2 ant val
COc1cc(CN2CCC3(CCC(CNC(=O)c4ccco4)O3)CC2)ccc1O (stereo not given) | 10%
C=CCN1c2ccccc2C(=O)CS1(=O)=O | -6%
N[C@@H](Cc1cc(I)c(Oc2cc(I)c(O)c(I)c2)c(I)c1)C(=O)O | -14%[29.6 µM]

(continued)
SMILES | EPAC2 ant val
Cc1cccc(CNC(=O)c2cnn(-c3nccc(-c4cccs4)n3)c2C2CC2)n1 | 11%
O=C(c1ccco1)N1CCC2(CC1)CN(c1ncccn1)C2 | -26%
COc1cccc(-c2nc3cc4c(cc3cc2CN(C(=O)c2csc(C)n2)C2CC2)CCC4)c1OC | -2%
O=C(NCc1ccccn1)c1cnn(-c2nccc(-c3cc4ccccc4o3)n2)c1C1CC1 | -28%
COc1ccc(NC(=O)N2CC3(CCN(C(=O)c4ccc(OC)cc4)CC3)C2)cc1 | -23%
O=C1c2ccccc2-c2n[nH]c3cccc1c23 | 0%
Cc1cnc(CNc2ccnc(-c3ccccc3Cl)n2)cn1 | -10%
CCC(C)C(=O)OC1C2CC3=C4CC(=O)OC(c5ccoc5)[C@]4(C)CCC3[C@@](C)(C2=O)C(CC(=O)OC)C1(C)C (stereo not given in full) | -17%
O=C(O)CC1CCCc2ccccc2C1O (stereo not given) | -7%
O=S(=O)(c1ccccc1)N1CCC[C@@]2(CCN(Cc3nccs3)C2)C1 | -9%
CCCCC[C@H]1CN(CCCC)C(=O)[C@@H]1CC(=O)NCc1ccc(OC)cc1 | -12%
COCCOC(=O)C1=C(C)NC(C)=C(C(=O)OC/C=C/c2ccccc2)C1c1cccc([N+](=O)[O-])c1 (stereo not given) | u
Cn1cccc1C(=O)N1CCC2(CCCN(c3ncccn3)C2)CC1 | u
CC(=O)O[C@H]1C(=O)[C@@]2(C)C([C@H](OC(=O)c3ccccc3)[C@]3(O)C[C@H](OC(=O)[C@H](O)[C@@H](NC(=O)c4ccccc4)c4ccccc4)C(C)=C1C3(C)C)[C@]1(OC(C)=O)CO[C@@H]1C[C@@H]2O (stereo not given in full) | u
Cc1ccccc1-c1cc(-n2ccnc2)ncn1 | -11%
O=C(c1ccncc1)N1CCC2(CCCN(c3cccc(-c4ccccc4)c3)C2)CC1 | u
Cc1ccc(CN2C[C@H](Sc3ccccn3)C[C@H]2C(=O)Nc2ccc3sc(C)nc3c2)c(C)c1 | -19%
O=c1c(CCc2ccccc2)nc2cncnc2n1Cc1ccc(F)cc1 | u
O=C(c1csnn1)N1CCC2(CCCN(c3ccncc3)C2)CC1 | -18%
CC(C)Cn1cnc2c(N)nc3ccccc3c21 | -11%
c1coc(-c2ccccc2CN2CCOc3ccc(CN4CCOCC4)cc3C2)c1 | u
Nc1nc2c(nc(Br)n2C2OC3COP(=O)(O)O[C@@H]3C2O)c(=O)[nH]1 (stereo not given in full) | -1%
CS(=O)(=O)N1CCC[C@@]2(CCN(Cc3ccccc3)C2)C1 | -19%
C[C@H](Cc1ccccc1)Nc1ncnc2c1ncn2[C@@H]1O[C@H](CO)[C@@H](O)[C@H]1O | -4%&-9%
O=Cc1ccc(O)cc1 | -2%

Reprinted from the part before: 3 compounds, then new ones.
SMILES | EPAC2 ant val
CS(=O)(=O)N1CCC[C@@]2(CCN(Cc3ccccc3)C2)C1 | -19%
C[C@H](Cc1ccccc1)Nc1ncnc2c1ncn2[C@@H]1O[C@H](CO)[C@@H](O)[C@H]1O | -4%&-9%
O=Cc1ccc(O)cc1 | -2%
CC(N)=NCCCC[C@@H](N)C(=O)O | -27%
CC(=O)N1CCC[C@@]2(CCN(C(c3ccccc3)c3ccccc3)C2)C1 | -24%
COc1ccc(CNc2ncnc3ccc(-c4ccc5c(c4)OCO5)cc23)c(OC)c1 | -19%
O=C1CCN(Cc2ccc(O)cc2)CCN1[C@H](CO)Cc1ccccc1 | 2%
Nc1cccc2[nH]cnc12 | u
O=C(/C=C/c1ccc(F)cc1)NCC1Cc2cccc(-c3ncccn3)c2O1 (stereo not given) | 6%
O=c1c(-c2cccc(Cl)c2)nc2cncnc2n1Cc1ccc(F)cc1 | -12%
COc1ccc(-c2cn(CC3CCCCC3)nn2)cc1 | -27%
O=c1c(-c2ccc(F)cc2)nc2cnc(N3CCNCC3)nc2n1Cc1cccs1 | -29%
Nc1ccc(S(N)(=O)=O)cc1 | -8%&-9%
O=S1(=O)CCO[C@H]2Cc3ccccc3[C@H]2N1Cc1cccc(Cl)c1 | u
Cn1cc(C(F)(F)F)nc1-c1ccc(OC[C@@H](O)CNCCOc2ccc(O)c(C(N)=O)c2)cc1 | -18%
COc1ccc(/C=C/C(=O)c2cccs2)c(OC)c1 | -24%

Among those listed so far, three have an aryl thioether with sulfur outside any ring.
SMILES | EPAC2 ant val
CSc1ccccc1N1CCN(CCCCCC(=O)NC2CCCc3ccccc32)CC1 (stereo not given) | -15%
Cc1ccc(SC[C@H](Cc2ccccc2)N2CC[C@@H](C)CCC2=O)cc1 | u
Cc1ccc(CN2C[C@H](Sc3ccccn3)C[C@H]2C(=O)Nc2ccc3sc(C)nc3c2)c(C)c1 | -19%
